# UUG fidelity = modulators of yeast start codon fidelity, primary screen, whole organism, S. cerevisiae, single point, plate reader. 350,000 tested, 0.13% active. S. cerevisiae UUG-firefly luciferase reporter, luminescence/redox ratio. activity score, % at 18.7 µM;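 active = replicate mean at a twofold rise or more, about +100% in these data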;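 also: firefly luciferase made from a UUG start codon reports start codon fidelity; reporter light over untreated wells divided by growth signal over untreated wells; some hits fall short of that in this replicate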
# Env fusion inh = inhibitors of HIV-1 Env-driven cell-cell fusion, primary screen, HeLa-JRFL effector, CEM21 target cells, luciferase; inhibition, % at 12.3 µM; 360,000 tested, 1.1% active; AID 651610, 2012;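 active = mean replicate inhibition score of at least 50 and every replicate individually at or above 50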;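 also: 0% = plate neutral controls and 100% = maraviroc near 300 nM; one replicate is shown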
# eIF4H FP inh = human eIF4H binding inhibitors, primary screen, translation initiation inhibitor project, biochemical, uHTS, fluorescence polarization; AID 2012, 2009; inhibition, % at 35 µM; 290,000 tested, 0.94% active; Eukaryotic translation initiation factor 4H (Homo sapiens), Q15056; eIF4H fluorescence polarization binding assay;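 active = 50% or more with normal probe brightness, or confirmed in later tests; about a fifth of its hits are not listed in these tables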;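 also: calls also rest on retests at 20 µM and on dose response follow-up; 0% = protein and probe with vehicle and 100% = probe without protein; strong numbers were not always called active; many hits fall short of the cut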
# MT1-MMP act inh = blockers of MT1-MMP proenzyme processing, primary screen, HT1080 RFP-PRO-GFP cells, GFP/RFP fluorescence | GFP/RFP ratio change, % at 20 µM | GFP/RFP ratio fluorescence, overnight; percent of plate control window, DMSO zero | 360,000 tested, 0.061% active | Matrix metalloproteinase-14 (Homo sapiens), P50281;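 active = GFP/RFP ratio change of at least 30% with cell ATP level not reduced by more than half and red fluorescence within 50% of control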; also: strong numbers were not always called active
#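 Test system: HT1080 RFP-PRO-GFP cells; Benchmarks: DMSO and RFP-L50D-GFP cell wells; Timing: cells overnight before dosing, compound overnight, 37 °C, 5% CO2; Compound: one 20 µM compound dose with 1% DMSO; Read-out: GFP/RFP fluorescence ratio.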
# Rce1 inhib = yeast Rce1p protease inhibitors, primary screen, biochemical, fluorescence, cell-free homogeneous. 290,000 tested, 0.27% active. CAAX prenyl protease 2 (Saccharomyces cerevisiae (strain ATCC 204508 / S288c)), Q03530. calls only. yeast membranes, quenched prenylated peptide cleavage fluorescence. AID 2563, 2010;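 active = fall in fluorescence gain of 50% or more versus controls, with final raw signal at or below 3038400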;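 also: plate controls were neutral control wells for no effect and wells lacking membranes for full effect; tested at 10 µM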
# Target sequence (Q03530 whole entry, looked up): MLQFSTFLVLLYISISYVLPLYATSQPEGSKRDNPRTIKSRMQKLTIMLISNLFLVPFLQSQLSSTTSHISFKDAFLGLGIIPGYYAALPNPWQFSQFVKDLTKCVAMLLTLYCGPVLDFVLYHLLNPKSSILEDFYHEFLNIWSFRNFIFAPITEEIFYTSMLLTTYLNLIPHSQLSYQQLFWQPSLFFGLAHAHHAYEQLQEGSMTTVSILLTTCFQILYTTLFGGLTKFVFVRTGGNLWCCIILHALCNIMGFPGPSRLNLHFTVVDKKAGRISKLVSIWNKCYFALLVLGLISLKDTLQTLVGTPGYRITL
# PABP FP inh = PABP poly(A) RNA binding inhibitors, primary screen, biochemical, fluorescence polarization, uHTS. inhibition, % at 35 µM. AID 2014, 2009. 290,000 tested, 1% active. Polyadenylate-binding protein 1 (Homo sapiens), P11940;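 active = 50% or more with normal probe brightness, or confirmed in later tests; about a fifth of its hits are not listed in these tables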;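 also: calls also rest on retests at 20 µM and on dose response follow-up; controls were probe without protein and protein plus probe with vehicle; some compounds called inactive have numbers as strong as hits; many hits fall short of the cut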
# CSC inhib = cancer stem cell viability inhibitors, primary screen, luminescence; cancer stem cell-like cells viability; inhibition, % at 7.5 µM; 300,000 tested, 1.1% active; AID 2717, 2010;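 active = mean at 75% or more and at least half the replicates too; tested in HMLE shEcad cells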;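 also: 0% = median of negative and 100% = median of positive control wells; the first replicate is given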
# eIF4H FP inh retest = second read-out of eIF4H FP inh, no call of its own (marks repeat the call); inhibition, %; compound at 20 µM; confirmation average;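 mean of two retest wells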
# PABP FP inh retest = also measured in PABP FP inh; calls as there; inhibition, %; compound at 20 µM; confirmation repeats;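 mean of two retest wells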
# MT1-MMP act inh RFP = also measured in MT1-MMP act inh; calls as there; RFP signal change, %; measured here: RFP expression control read;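 0 = vehicle wells; hits needed this value within 50% of zero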
# The depositor's hits bear a star; i = inactive; . = not tested or not shown; & = joins results of further samples.
SMILES,UUG fidelity,Env fusion inh,eIF4H FP inh,MT1-MMP act inh,MT1-MMP act inh RFP,Rce1 inhib,PABP FP inh,CSC inhib,others
O=C(c1ccc2c(c1)OCO2)N1CCCN(C(=O)c2ccc3c(c2)OCO3)CC1,-9,.,3,-2,-3,i,12,-7,
CN(C)c1ccc(C(=O)N2CCN(C(=O)C3CCCO3)CC2)cc1 (configuration not stated),-4,-12,.,8,4,.,.,-13,
O=C(COc1ccc2c3c(c(=O)oc2c1)CCC3)NC1CCN(Cc2ccccc2)CC1,-14,5,-8,4,6,i,4,-6,
CCOC(=O)CSc1nc2c(sc(=S)n2-c2ccccc2OC)c(=O)n1Cc1ccco1,-9,-168,4,-2,-7,i,-9,14,
O=C(NCC1CCCO1)c1ccc(N2C(=O)C3CCCCC3C2=O)cc1 (configuration not stated),-9,-9,2,3,3,.,-2,-16,
CCOc1nc(CC(C)C)c2c(c1C#N)CC(C)(C)OC2,-16,-25,-8,1,4,i,-8,-13,
Cc1ccc(CN2CCSc3ccc(C(=O)NCCCN4CCN(C)CC4)cc32)cc1,-16,14,-10,-1,2,i,-8,7,
CC1=C(C(=O)Nc2nc3ccccc3s2)C(c2ccco2)C(C#N)=C(SCC(=O)NC2CCCCC2)N1 (configuration not stated),-4,.,-4,-6,-14,i,-4,8,
CCCCC[C@H]1CN(CCCC)C(=O)[C@@H]1CC(=O)NCc1ccc(OC)cc1,12,36,-7,1,-5,i,7,-5,
O=C(NCc1ccncc1)C1CCN(C(=O)c2cccc(Cl)c2)CC1,7,2,8,2,4,i,-8,-10,
COc1ccc(CNC(=O)C2(CC3CC(c4ccccc4)=NO3)CCN(C(=O)C3CCCC3)CC2)cc1 (configuration not stated),-11,0,0,2,-1,i,4,4,
CCOC(=O)C1=C(CC)NC2=C(C(=O)CCC2)C1c1ccc(OC)c(OC)c1 (configuration not stated),-10,.,-4,0,2,i,-2,-10,
O=C(c1cccc(NS(=O)(=O)c2cccc([N+](=O)[O-])c2)c1)N1CCOCC1,-6,0,4,-4,-3,i,0,6,
COc1ccc(NC(=O)CCS(=O)(=O)c2ccc(Cl)cc2)cc1,1,5,-13,-2,-3,i,-7,-15,
Cn1nc(C(=O)N2CCc3ccccc3C2)c2ccccc2c1=O,-22,.,-3,6,3,i,1,-9,
COc1ccc(-c2sc3ccc(N4CCOCC4)cc3c2C#CCO)cc1,2,26,.,16,-23,.,.,.,
CCOc1ccccc1N(C(=O)c1ccccc1Cl)C1=NC(C)(C)CS1,-8,5,-6,2,-1,i,64,2,eIF4H FP inh retest=31;PABP FP inh retest=12
CC(=O)c1ccc(OC(=O)CN2C(=O)c3ccccc3C2=O)cc1,-15,19,3,1,1,i,-7,-7,
Cc1oc(-c2cccc(Cl)c2)nc1CS(=O)(=O)CC(=O)NC1CCCC1,-6,6,-6,-1,0,i,-7,-11,
C[C@H](CO)N1C[C@H](C)[C@@H](CN(C)S(=O)(=O)c2ccc(F)cc2)Oc2c(NC(=O)Nc3ccc4c(c3)OCO4)cccc2C1=O,4&2,-28,.,1,1,.,.,.,
O=C(Oc1ccc2ccc(=O)oc2c1)c1ccco1,39,-4,0,-2,2,i,-4,0,
Cc1cc(C)cc(C(=O)OCC(=O)NCc2cccs2)c1,-8,-12,6,5,3,i,14,-3,
O=C(O)C1NCCc2ccccc21 (configuration not stated),-10,.,-7,-3,0,i,11,6,
CCOC(=O)C1CCN(Cc2ccc(OCc3ccccc3)cc2)CC1,-12,10,1,0,0,i,-4,-5,
O=C(C[C@@H]1C[C@H]2c3cc(NC(=O)NC4CCCCC4)ccc3O[C@H]2[C@H](CO)O1)NC1CCCCC1,2,-66,.,-1,-1,.,.,.,
SMILES,UUG fidelity,Env fusion inh,eIF4H FP inh,MT1-MMP act inh,MT1-MMP act inh RFP,Rce1 inhib,PABP FP inh,CSC inhib,others
COc1ccc(S(=O)(=O)n2cnc3ccccc32)cc1,-1,-24,-4,0,1,i,0,-9,
C/C=C/c1ccc(OCC(=O)N(C)CC(=O)Nc2ccc(F)cc2)c(OC)c1,8,10,.,3,3,i,.,-11,
COCc1ccc(C(=O)N2CCCC(Nc3ccc4c(c3)OCCO4)C2)o1 (configuration not stated),2,-4,1,-2,-1,i,0,-5,
O=C(NCc1cccs1)C1CCCN1S(=O)(=O)c1ccccc1F (configuration not stated),-10,-42,-6,2,4,i,-5,0,
CCOc1ccc(S(=O)(=O)N(CC(=O)NC2CCCCC2C)Cc2ccco2)cc1 (configuration not stated),-13,.,6,0,-5,i,14,-2,
COc1cccc(C(=O)Nc2ccc3c(C)cc(=O)oc3c2)c1,-7,-235,-12,6,8,i,-4,0,
Cc1c(CCOC(=O)C23CC4CC(CC(C4)C2)C3)sc[n+]1CC#N,.,-19,-3,-4,-1,i,2,-11,
CN(CC(=O)Nc1ccc(OC(F)(F)F)cc1)C1CCCCC1,-19,0,20,1,3,i,18,-2,

# Molecules above containing four or more nitrogen atoms (3):
SMILES,UUG fidelity,Env fusion inh,eIF4H FP inh,MT1-MMP act inh,MT1-MMP act inh RFP,Rce1 inhib,PABP FP inh,CSC inhib,others
Cc1ccc(CN2CCSc3ccc(C(=O)NCCCN4CCN(C)CC4)cc32)cc1,-16,14,-10,-1,2,i,-8,7,
CC1=C(C(=O)Nc2nc3ccccc3s2)C(c2ccco2)C(C#N)=C(SCC(=O)NC2CCCCC2)N1 (configuration not stated),-4,.,-4,-6,-14,i,-4,8,
C[C@H](CO)N1C[C@H](C)[C@@H](CN(C)S(=O)(=O)c2ccc(F)cc2)Oc2c(NC(=O)Nc3ccc4c(c3)OCO4)cccc2C1=O,4&2,-28,.,1,1,.,.,.,

# A draw from above in order of length of the SMILES, highest first:
SMILES,UUG fidelity,Env fusion inh,eIF4H FP inh,MT1-MMP act inh,MT1-MMP act inh RFP,Rce1 inhib,PABP FP inh,CSC inhib,others
C/C=C/c1ccc(OCC(=O)N(C)CC(=O)Nc2ccc(F)cc2)c(OC)c1,8,10,.,3,3,i,.,-11,
Cc1c(CCOC(=O)C23CC4CC(CC(C4)C2)C3)sc[n+]1CC#N,.,-19,-3,-4,-1,i,2,-11,
COCc1ccc(C(=O)N2CCCC(Nc3ccc4c(c3)OCCO4)C2)o1 (configuration not stated),2,-4,1,-2,-1,i,0,-5,
COc1cccc(C(=O)Nc2ccc3c(C)cc(=O)oc3c2)c1,-7,-235,-12,6,8,i,-4,0,
COc1ccc(S(=O)(=O)n2cnc3ccccc32)cc1,-1,-24,-4,0,1,i,0,-9,

# Compound activity: PubChem, several laboratories
